# Mtb UGM inh = M. tuberculosis UGM enzyme inhibitors, primary screen, biochemical, fluorescence polarization, single point. UDP-galactopyranose mutase (Mycobacterium tuberculosis (strain ATCC 25618 / H37Rv)), …. purified UGM, fluorescence polarization probe displacement. inhibition, % at 10 µM. actives 0.06% (n = 320,000). AID 504406, 2011; in the data active = inhibition above about 10%, passing the limit was not always enough
# BioA inh = M. tuberculosis BioA enzyme inhibitors, primary screen, biochemical, plate reader, single point, HTS. purified M. tuberculosis BioA enzyme. 7,8-diaminopelargonic acid synthase BioA (Mycobacterium tuberculosis). inhibition, % at 9.99 µM. actives 0.096% (n = 360,000); in the data active = inhibition above about 40%
# BH1578 lux ind = inducers of Vibrio cholerae quorum light production without autoinducers, primary screen, BH1578 luxS cqsA deficient, single point; V. cholerae BH1578 lux reporter, luminescence, 6 h; actives 0.16% (n = 350,000); activation, % at 18.7 µM; in the data active = activation mostly above about 9.7%, no sharp cut-off; also: not every result past the cut was called active; inactives centre near 0; reference of the scale not given here
# Rv3671c protease = Rv3671c serine protease inhibitors, primary screen, biochemical, fluorescence polarization, M. tuberculosis H37Rv; P9WHR9; inhibition, % at 5.96 µM; actives 0.048% (n = 320,000); in the data active = inhibition above about 38%;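 also: extracellular domain of Rv3671c used as enzyme; 0% = enzyme with DMSO and 100% = no enzyme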
# Target sequence (P9WHR9 whole entry, looked up, the tested form may be a part): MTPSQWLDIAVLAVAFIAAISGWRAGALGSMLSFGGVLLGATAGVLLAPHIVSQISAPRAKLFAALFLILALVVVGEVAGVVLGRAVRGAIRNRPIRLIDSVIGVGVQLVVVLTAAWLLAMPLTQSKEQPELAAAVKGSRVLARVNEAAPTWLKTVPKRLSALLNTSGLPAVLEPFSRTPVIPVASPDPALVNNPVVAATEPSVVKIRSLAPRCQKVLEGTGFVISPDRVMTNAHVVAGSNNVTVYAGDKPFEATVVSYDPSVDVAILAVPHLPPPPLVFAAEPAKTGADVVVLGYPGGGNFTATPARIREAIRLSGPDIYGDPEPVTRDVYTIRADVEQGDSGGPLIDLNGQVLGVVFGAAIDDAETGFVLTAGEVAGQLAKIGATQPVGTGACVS
# SSB-PriA inh = inhibitors of Klebsiella pneumoniae PriA binding to SSB C-terminal tail, primary screen, biochemical, AlphaScreen. PriA–SSB C-terminal tail interaction (Klebsiella pneumoniae). actives 0.6% (n = 430,000). AID 1272365, 2023. AlphaScreen SSBct-PriA binding, biotinylated peptide. inhibition, % at 33 µM; in the data active = inhibition mostly above about 37%, no sharp cut-off; inactive = mostly below about 20%;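 also: plate controls were negative control peptide for no effect and reference peptide for full effect; strong numbers were not always called active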
# The depositor's hits bear a star; i = inactive; . = no result given; & = joins results of further samples.
molecule,Mtb UGM inh,BioA inh,BH1578 lux ind,Rv3671c protease,SSB-PriA inh
CN1C2CCC1CC(OC(=O)C(CO)c1ccccc1)C2 (centres undefined),3.1,-1.0,i,5.1,8.9
C[C@H](C(=O)O)c1cccc(C(=O)c2ccccc2)c1,-2.9,-0.9,-3.6,-6.1,-11.1
C[N+]1(C)CC[C@H](OC(=O)C(O)(c2ccccc2)C2CCCC2)C1 (some centres undefined),.,.,.,.,-1.8
O=C(O)COCCN1CCN([C@H](c2ccccc2)c2ccc(Cl)cc2)CC1,0.6,1.2,0.3,-5.3,-3.8
Cc1nn(CC(=O)O)c(C)c1Cl,-1.1,-2.1,0.1,-1.1,3.2&-18.0&-1.0
CCc1nc(N)nc(N)c1-c1ccc(NCCN)c([N+](=O)[O-])c1,.,.,-0.9,.,19.1
CC(C)[N+]1(C)[C@@H]2CC[C@@H]1CC(OC(=O)C(CO)c1ccccc1)C2 (some centres undefined),0.8,-1.5,i,-1.2,-10.6
O=[N+]([O-])c1ccccc1Cl,2.7,-1.0,-0.1,-6.7,-4.6
CC(C)(C(=O)O)c1ccc(C(O)CCCN2CCC(C(O)(c3ccccc3)c3ccccc3)CC2)cc1 (centres undefined),0.7,1.0,-0.3,-9.2,-18.6
CCc1nc(N)nc(N)c1-c1ccc(Cl)cc1,.,-21.8,i,3.5,-0.4
CN1C2CC(OC(=O)C(CO)c3ccccc3)CC1C1OC12 (centres undefined),2.1&1.3,0.1&-0.5,-0.4&-0.6,2.9&-0.3,1.5

# Profiles as entered above.
# Profile of `CC(C)[N+]1(C)[C@@H]2CC[C@@H]1CC(OC(=O)C(CO)c1ccccc1)C2` (some centres undefined) = Mtb UGM inh = 0.8; BioA inh = -1.5; BH1578 lux ind = i; Rv3671c protease = -1.2; SSB-PriA inh = -10.6
# Profile of `CN1C2CCC1CC(OC(=O)C(CO)c1ccccc1)C2` (centres undefined) = Mtb UGM inh = 3.1; BioA inh = -1.0; BH1578 lux ind = i; Rv3671c protease = 5.1; SSB-PriA inh = 8.9

# A second format for part of the listing above.
C[N+]1(C)CC[C@H](OC(=O)C(O)(c2ccccc2)C2CCCC2)C1 (some centres undefined)
  Mtb UGM inh: . | BioA inh: . | BH1578 lux ind: . | Rv3671c protease: . | SSB-PriA inh: -1.8
O=C(O)COCCN1CCN([C@H](c2ccccc2)c2ccc(Cl)cc2)CC1
  Mtb UGM inh: 0.6 | BioA inh: 1.2 | BH1578 lux ind: 0.3 | Rv3671c protease: -5.3 | SSB-PriA inh: -3.8
Cc1nn(CC(=O)O)c(C)c1Cl
  Mtb UGM inh: -1.1 | BioA inh: -2.1 | BH1578 lux ind: 0.1 | Rv3671c protease: -1.1 | SSB-PriA inh: 3.2&-18.0&-1.0
CCc1nc(N)nc(N)c1-c1ccc(NCCN)c([N+](=O)[O-])c1
  Mtb UGM inh: . | BioA inh: . | BH1578 lux ind: -0.9 | Rv3671c protease: . | SSB-PriA inh: 19.1

# A portion of the library; the hit share may differ from the screen's.
